High-throughput results as filed in PubChem.
LANA-H2B inh = blockers of LANA interaction with H2A/H2B – biochemical, FP readout, HTS, primary screen; 320,000 compounds, 0.6% hits; inhibition, % (test concentration not listed); Protein LANA1 (Human herpesvirus 8 type P (isolate GK18)), Q9QR71; cell-free LANA-H2A/H2B peptide, fluorescence polarization; in the data active = inhibition mostly above about 10%, no sharp cut-off; inactive = mostly below about 6.7%;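 note: stock transfer was 7.5 nL into about 10 µL; 0% = median of vehicle wells and 100% = median of positive control wells; one replicate is shown; the record names a cut of 25% in any replicate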
Target sequence (Q9QR71 whole entry, looked up): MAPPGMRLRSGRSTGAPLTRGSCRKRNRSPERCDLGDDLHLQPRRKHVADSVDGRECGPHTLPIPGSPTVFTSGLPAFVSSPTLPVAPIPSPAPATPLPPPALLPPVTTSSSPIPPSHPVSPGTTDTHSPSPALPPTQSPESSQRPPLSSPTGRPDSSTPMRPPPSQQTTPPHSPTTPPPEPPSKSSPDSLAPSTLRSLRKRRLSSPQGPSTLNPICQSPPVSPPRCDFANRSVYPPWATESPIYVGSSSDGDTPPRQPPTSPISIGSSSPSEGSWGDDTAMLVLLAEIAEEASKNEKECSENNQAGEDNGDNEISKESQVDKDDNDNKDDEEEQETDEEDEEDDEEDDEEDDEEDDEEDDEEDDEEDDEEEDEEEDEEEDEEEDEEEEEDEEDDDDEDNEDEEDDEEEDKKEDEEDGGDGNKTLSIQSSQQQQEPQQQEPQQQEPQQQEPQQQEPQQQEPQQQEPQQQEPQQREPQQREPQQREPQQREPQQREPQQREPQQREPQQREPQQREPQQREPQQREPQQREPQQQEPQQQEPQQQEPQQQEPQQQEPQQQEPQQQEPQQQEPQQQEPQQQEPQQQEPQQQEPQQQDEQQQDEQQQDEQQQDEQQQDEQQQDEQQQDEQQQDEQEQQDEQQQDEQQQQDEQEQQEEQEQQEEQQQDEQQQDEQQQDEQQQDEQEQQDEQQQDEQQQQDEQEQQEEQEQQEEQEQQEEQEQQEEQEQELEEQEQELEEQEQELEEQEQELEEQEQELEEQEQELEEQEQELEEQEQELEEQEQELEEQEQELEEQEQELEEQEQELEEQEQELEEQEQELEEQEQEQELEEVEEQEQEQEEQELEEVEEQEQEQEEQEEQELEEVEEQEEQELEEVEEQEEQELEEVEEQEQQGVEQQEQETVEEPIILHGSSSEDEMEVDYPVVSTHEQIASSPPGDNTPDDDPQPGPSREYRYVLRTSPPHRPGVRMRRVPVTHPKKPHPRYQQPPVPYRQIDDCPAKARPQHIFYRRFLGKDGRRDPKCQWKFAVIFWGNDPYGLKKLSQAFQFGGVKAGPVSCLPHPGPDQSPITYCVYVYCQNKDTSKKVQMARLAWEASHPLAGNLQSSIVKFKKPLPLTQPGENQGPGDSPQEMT
RanGTP-Impb inh = inhibitors of RanGTP-importin-beta interaction, primary screen, biochemical, FRET, CFP-Ran, YFP-importin-beta, homogeneous. Ran GTPase (GTP-bound) - importin-beta complex. cell-free CFP-Ran/YFP-importin-beta FRET ratio. inhibition, % (test concentration not listed). 300,000 compounds, 1.1% hits. AID 2216, 2009;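 active = most replicates above 15%; inconclusive = exactly half above 15%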;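 note: 0% = DMSO wells and 100% = Ran loaded with GDP instead of GTP; wells of about 40 µL received 100 nL stock; the first replicate is given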
Vif TR-FRET = inhibitors of Vif binding to APOBEC3G peptide, primary screen, biochemical, TR-FRET, GST-Vif 1-94, biotin-A3G peptide, dose response retest (AID 1117319); TR-FRET GST-Vif / biotin-A3G peptide binding; higher % means a stronger effect; test concentration not given here; strong numbers were not always called active; inhibition, %; hits with a dose series show IC50 in µM; 260,000 compounds, 0.57% hits;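 active = above the screen mean plus three standard deviations and confirmed in dose response; inconclusive = results disagree or hit not tested in dose response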;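 note: Vif residues 1-94 fused to GST binding biotinylated APOBEC3G peptide 110-148; 0% = full assay without inhibitor and 100% = GST in place of GST-Vif; retest series ran down from 100 µM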
Active calls of the source: *; ? = inconclusive; nt = no result given. This is a subset, so the mix of outcomes need not match the whole.

SMILES | LANA-H2B inh | RanGTP-Impb inh | Vif TR-FRET
Cc1ccc2c(Cl)cc(Cl)c(OCC(=O)NCc3ccco3)c2n1 | nt | nt | 71.9%
N#Cc1ccc(-c2nc3cc(C#N)c(C#N)cc3nc2-c2ccccc2)cc1C#N | nt | nt | -66.0%
CC[C@@H]1C=C(C)C[C@H](C)C[C@H](OC)[C@H]2O[C@@](O)(C(=O)C(=O)N3CCCC[C@H]3C(=O)O[C@H](/C(C)=C/[C@@H]3CC[C@@H](O)[C@H](OC)C3)[C@H](C)[C@@H](O)CC1=O)[C@H](C)C[C@@H]2OC | nt | nt | 29.1%
Cn1c(=O)oc2cc(S(=O)(=O)N3CCCC(C(=O)N4CC=C(c5ccccc5)CC4)C3)ccc21 (stereo unspecified) | nt | nt | 0.9%
CCOC(=O)c1cn(-c2nc(-c3ccc(Cl)cc3)cs2)c2c(F)c(N3CC(C)OC(C)C3)c(F)cc2c1=O (stereo unspecified) | nt | nt | -7.2%
CC(=O)N1CCc2ccc(C(=O)CN3CCN(c4cccc(C)c4C)CC3)cc21 | nt | nt | 18.5%
NC(=O)CC[C@@H]1NC(=O)C(Cc2ccc(O)cc2)NC(=O)c2cc([N+](=O)[O-])cc(F)c2NCCC[C@@H](C(N)=O)NC1=O (stereo partly specified) | nt | nt | ?
CSc1ncccc1C(=O)OCc1ccc(COC(=O)c2cccnc2SC)cc1 | nt | nt | -2.3%
COCCN(Cc1cc2cc3c(cc2[nH]c1=O)OCO3)C(=O)c1cccs1 | nt | nt | -11.2%
COc1ccc(S(=O)(=O)Nc2cc(Sc3ncn[nH]3)c(O)c3ccccc23)cc1 | nt | nt | 32.9%
COc1c(N2CCN(C(=S)Nc3ccccc3)C(C)C2)c(F)cc2c(=O)c(C(=O)O)cn(C3CC3)c12 (stereo unspecified) | nt | nt | ?
COc1ccc(C2c3c(oc4ccc(C)cc4c3=O)C(=O)N2c2cc(C)ccn2)cc1OC (stereo unspecified) | nt | nt | 4.0%
CC1CNc2c(cccc2S(=O)(=O)N[C@@H](CCCN=C(N)N)C(=O)N2CC[C@@H](C)C[C@@H]2C(=O)O)C1 (stereo partly specified) | nt | nt | -0.7%
Cn1c(C(=O)N2CCN(C3CCCCC3)CC2)cc2c(=O)n(C)c3ccccc3c21 | nt | nt | 7.8%
CCOc1cccc(C2c3c(oc4cc(C)c(C)cc4c3=O)C(=O)N2CCCN(C)C)c1 (stereo unspecified) | nt | nt | 7.2%
O=C(N/N=C/c1c(Nc2cccc(C(F)(F)F)c2)nc2ccccn2c1=O)c1ccccc1 | nt | nt | ?
COc1ccc(CCn2c(=O)[nH]c3cc(C(=O)NCCc4ccccc4)ccc3c2=O)cc1OC | nt | nt | -4.8%
CCOC(=O)C1CCCN(c2c(N3CCc4ccccc4C3)c(=O)c2=O)C1 (stereo unspecified) | nt | nt | -3.9%
FC(F)(F)c1ccccc1C1C2=C(Nc3ncnn31)c1ccccc1CCC2 (stereo unspecified) | nt | nt | ?
O=C(c1noc2c1CCCC2)N1CCN(C(c2ccccc2)c2ccccc2)CC1 | nt | nt | -0.4%
O=C(O)CCC(NC(=O)C(Cc1ccc2c(c1)OCO2)NC(=O)c1ccccc1)C(=O)O (stereo unspecified) | nt | nt | 4.3%
O=C(c1ccccc1)c1ccc(N2CCNCC2)cc1 | nt | nt | -3.3%
COC(=O)c1ccc2c(c1)N(Cc1cc(C)ccc1C)C(=O)c1ccccc1S2=O (stereo unspecified) | nt | nt | -4.9%
O=C(O)c1ccccc1S | nt | nt | ?
CC(C)Sc1n[nH]c2nc3c(c(=O)n12)C1(CCCC1)Cc1ccccc1-3 | nt | nt | 21.2%
COc1ccc(/C=C/C(=O)c2sc(-c3ccc(Cl)cc3)nc2C)cc1 | nt | nt | 3.3%
O=C1c2ccc3c4c(ccc(c24)C(=O)N1Cc1cccnc1)C(=O)N(Cc1cccnc1)C3=O | nt | nt | 20.4%
Cc1ccc2nc3c(cc(C#N)c(=O)n3CC3CCCO3)c(=O)n2c1 (stereo unspecified) | nt | nt | 25.2%
Cc1ccc2nc3sc(-c4nnc(-c5ccccc5[N+](=O)[O-])o4)c(N)c3cc2c1 | nt | nt | 8.0%
N=C1C(c2nc3ccccc3c(=O)[nH]2)=C(O)CN1c1ccccc1 | nt | nt | 64.8%
CCC(C)C(NC(=O)C1CCC(C)CC1)C(=O)NC1CCN(Cc2ccccc2)CC1 (stereo unspecified) | nt | nt | -8.7%
O=C(Nc1cccc(F)c1)c1ccc(-c2ccccc2C(F)(F)F)o1 | nt | nt | 2.4%
O=C(CCCSc1nnnn1-c1ccccc1)c1ccc(F)cc1 | nt | nt | -0.8%
CCOC(=O)c1[nH]c(C)c(/C(O)=C2\C(=O)C(=O)N(CCCN(C)C)C2c2ccncc2)c1C (stereo unspecified) | nt | nt | 4.1%
CCCOc1ccc(C(=O)NC(=S)Nc2nc3ccc(C)cc3s2)cc1 | nt | nt | -6.8%
CCOC(=O)c1cnn(-c2cc(C)nc3c(-c4ccc(Cl)cc4)c(C)nn23)c1N | nt | nt | -5.7%
Cn1c(=O)c2[nH]c(-c3ccccc3)nc2n(C)c1=O | nt | nt | -0.4%
N#C/C(=C\c1sc(N2CCOCC2)nc1-c1ccccc1)C(=O)Nc1cccc2ccccc12 | nt | nt | -9.7%
COc1cc(/C=N/NC(=O)c2cncc(Br)c2)ccc1OC(=O)c1ccc2c(c1)OCO2 | nt | nt | -0.9%
NC(=O)C[C@@H]1NC(=O)c2cc([N+](=O)[O-])cc(F)c2NCCCC[C@@H](C(N)=O)NC(=O)[C@H](CO)NC1=O | nt | nt | ?
CSc1ncc(Cl)c(C(=O)Nc2sc3c(c2C(=O)NCc2ccco2)CCCC3)n1 | nt | nt | 18.2%
CCC(=O)Nc1nc(C)c(-c2csc(Nc3ccc(S(=O)(=O)Nc4cc(C)on4)cc3)n2)s1 | nt | nt | 29.5%
CCCOc1ccc(/C(O)=C2/C(=O)C(=O)N(CCCN3CCOCC3)C2c2ccncc2)cc1 (stereo unspecified) | nt | nt | 21.5%
COc1cc(-c2nnc(CSc3nc4ccccc4s3)o2)cc(OC)c1OC | nt | nt | -4.3%
Cc1cc(C)c2cc(CN(CCO)C(c3nnnn3Cc3ccc(F)cc3)C(C)C)c(=O)[nH]c2c1 (stereo unspecified) | nt | nt | 16.4%
CCOC(=O)c1c(N)n(CC(C)NC(=O)C2CC2)c2nc3ccccc3nc12 (stereo unspecified) | nt | nt | 0.8%
CCOC(=O)C1CCN(c2nc3ccccc3nc2C(C#N)C(=O)NCCc2ccccc2)CC1 (stereo unspecified) | nt | nt | -3.5%
CCOC(=O)NC1(Nc2ccc(Cl)cn2)Oc2ccccc2O1 | nt | nt | ?
COc1cc(C2c3c(oc4ccccc4c3=O)C(=O)N2Cc2cccnc2)cc(OC)c1OC (stereo unspecified) | nt | nt | -5.6%
Cc1sc2ncn(CC(=O)OC(C)C)c(=O)c2c1C | nt | nt | -7.8%
Cc1ccc(S(=O)(=O)NCCn2c(C)cc3ccccc32)cc1 | nt | nt | -42.9%
Cc1nc2cc(-c3ccccc3)nn2c(C)c1CCC(=O)N1CCN(c2ccccn2)CC1 | nt | nt | -2.1%
O=S(=O)(c1cc(-c2nc3ccccc3s2)ccc1Cl)N1CCOCC1 | nt | nt | 5.2%
Cc1nn2c(N3CCN(C(=O)c4ccco4)CC3)cc(C(C)(C)C)nc2c1-c1ccc(Cl)cc1 | nt | nt | ?
O=C(c1cc(-c2ccc(Cl)c(Cl)c2)on1)N1CCCC1 | nt | nt | 4.8%
CCn1c(C)nc2cc(C(=O)n3cc(C(=O)c4ccccc4O)cn3)ccc21 | nt | nt | -5.2%
Cc1cc(C)c(C)c(C(=O)CSc2nnc(C)c(=O)[nH]2)c1C | nt | nt | 0.0%
Cc1ccc(S(=O)(=O)c2cnc(-c3ccccc3)nc2Oc2ccccc2)cc1 | nt | nt | 16.7%
CN1CCN(c2c(F)cc3c(=O)c(C(=O)O)cn(CCF)c3c2F)CC1 | nt | nt | -6.7%
CCN(CC)CCN1C(=O)C(=O)/C(=C(/O)c2ccc(OC)cc2)C1c1cccs1 (stereo unspecified) | nt | nt | -5.4%
The results go on:
SMILES | LANA-H2B inh | RanGTP-Impb inh | Vif TR-FRET
Cc1ccccc1-c1nnc(NC(=O)c2cc3ccccc3oc2=O)s1 | nt | nt | -0.6%
COc1cccc(-n2nnnc2SCC(=O)c2cc(OC)ccc2OC)c1 | nt | nt | 0.9%
Cc1ccc2c(c1)NC(=O)C(CC(=O)NCCCN1CCN(C3CCCCC3)CC1)O2 (stereo unspecified) | nt | nt | -3.4%
COc1cc(C2NC(C(=O)O)CS2)ccc1OCc1ccccc1C#N (stereo unspecified) | nt | nt | 10.2%
Cn1c(=O)c2c(-c3cccc(F)c3)c3c(nc2n(C)c1=O)-c1ccccc1C3O (stereo unspecified) | nt | nt | 5.6%
Cc1cc(C)cc(NC(=O)Cn2c(SCc3cc(C)ccc3C)nc3ccncc32)c1 | nt | nt | -63.7%
COc1cc(-c2nnc(COC(=O)c3c4c(nc5ccccc35)CCCC4)o2)cc(OC)c1OC | nt | nt | -3.1%
CN1CCc2c(c3c(n2C)CCN(C)[C@H]3c2ccccc2F)[C@@H]1c1ccccc1F | nt | nt | 2.1%
COc1ccc(OC)c(CNCCNC(=O)c2ccco2)c1 | nt | nt | 3.6%
CC(=O)Nc1cccc(NC(=O)CSc2nnnn2-c2ccc3c(c2)OCO3)c1 | nt | nt | 1.4%
CCOc1cc(/C=C(\C#N)C(=O)Nc2ccccc2[N+](=O)[O-])ccc1OCc1cccc2ccccc12 | nt | nt | 13.1%
O=C(NCCc1c[nH]c2ccccc12)[C@@H]1C[C@H]1[C@@H](NP(=O)(c1ccccc1)c1ccccc1)c1ccccc1 | nt | nt | -2.4%
CC(=NCc1ccncc1)C1=C(O)c2ccccc2C1=O | nt | nt | 5.2%
Cc1cc(C)n2c(Nc3ccc4c(c3)OCCO4)c(-c3ccco3)nc2n1 | nt | nt | 9.6%
c1ccc2c(N3CCCCC3)nnc(N3CCCCC3)c2c1 | nt | nt | -5.7%
Cc1cc(C)cc(Oc2ccccc2CO)c1 | nt | nt | -5.1%
CN=C1S/C(=C\c2ccc(Sc3ccc(Cl)cc3)o2)C(=O)N1C | nt | nt | 1.8%
c1ccc(-c2ccc(-c3nccc4ccccc34)[nH]2)cc1 | nt | nt | -0.9%
O=c1[nH]c2ccccc2n1CCCN1CCN(C(c2ccccc2)c2ccccc2)CC1 | nt | 0.9 | 22.5%
COc1ccc(-c2[nH]nc3c2C(c2ccc(OC(=O)N4CCOCC4)cc2)C(C#N)=C(N)O3)cc1 (stereo unspecified) | 1.2 | nt | -3.3%

Entries shown so far that contain an aryl thioether with sulfur outside any ring, in the order listed:
SMILES | LANA-H2B inh | RanGTP-Impb inh | Vif TR-FRET
CSc1ncccc1C(=O)OCc1ccc(COC(=O)c2cccnc2SC)cc1 | nt | nt | -2.3%
COc1ccc(S(=O)(=O)Nc2cc(Sc3ncn[nH]3)c(O)c3ccccc23)cc1 | nt | nt | 32.9%
CC(C)Sc1n[nH]c2nc3c(c(=O)n12)C1(CCCC1)Cc1ccccc1-3 | nt | nt | 21.2%
O=C(CCCSc1nnnn1-c1ccccc1)c1ccc(F)cc1 | nt | nt | -0.8%
CSc1ncc(Cl)c(C(=O)Nc2sc3c(c2C(=O)NCc2ccco2)CCCC3)n1 | nt | nt | 18.2%
COc1cc(-c2nnc(CSc3nc4ccccc4s3)o2)cc(OC)c1OC | nt | nt | -4.3%
Cc1cc(C)c(C)c(C(=O)CSc2nnc(C)c(=O)[nH]2)c1C | nt | nt | 0.0%
COc1cccc(-n2nnnc2SCC(=O)c2cc(OC)ccc2OC)c1 | nt | nt | 0.9%
Cc1cc(C)cc(NC(=O)Cn2c(SCc3cc(C)ccc3C)nc3ccncc32)c1 | nt | nt | -63.7%
CC(=O)Nc1cccc(NC(=O)CSc2nnnn2-c2ccc3c(c2)OCO3)c1 | nt | nt | 1.4%
CN=C1S/C(=C\c2ccc(Sc3ccc(Cl)cc3)o2)C(=O)N1C | nt | nt | 1.8%
